# Bioassay records (PubChem)
# gsp ag – qHTS for Agonist of gsp, the Etiologic Mutation Responsible for Fibrous Dysplasia/McCune-Albright Syndrome: qHTS. gsp mutant cells, cAMP HTRF, 30 min; control for the full effect not named in the record. Potency, µM (series often up to 76.9 µM), for inactives: at the highest dose activation (cAMP increase), actives largely listed as activators. actives 0.13% (n = 340,000). AID 624287, 2012; active = well fitted activation curve with a large enough effect; inconclusive = small, poorly fitted or top-dose-only effect, or another doubt; inactive = no such curve, though single readings can be large or run the other way; cell line not stated here;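 note: phosphodiesterase inhibitor Ro 20-1724 added with compounds to block cAMP breakdown; potency is the fitted concentration of half-maximal effect; nearly all actives have a fitted effect of over 60% in size; about a fifth of the inactives were tested at one dose only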
#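 Cells in DMEM/10% FBS with G418 were pretreated with compounds in DMSO plus […] (300 uM stock) for 30 min at 37C. cAMP was measured by HTRF (cAMP-d2 plus anti-cAMP antibody-K) after 30 min at room temperature.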
# TRPML1 inh – qHTS for Inhibitors of the Human Mucolipin Transient Receptor Potential 1 (TRPML1); Mucolipin-1 (Homo sapiens), Q9GZU1; activity change, negative = inhibition, % (test concentration not listed); actives 0.02% (n = 390,000); TRPML1-inducible cells, Ca2+ dye fluorescence, FDSS; stronger effect = lower value; inhibition of EC80 agonist-evoked calcium signal; in the data active means activity change below about -50%; inconclusive means about -30% to -50%; inactive means above about -30%;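 note: stimulus is agonist 54-4 at its EC80 concentration; % is set by controls: 0 for no effect and ±100 for the full control effect; compound concentration not given in the record; the text of the record puts the active cut at -80%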
# Target sequence (Q9GZU1 whole entry, looked up): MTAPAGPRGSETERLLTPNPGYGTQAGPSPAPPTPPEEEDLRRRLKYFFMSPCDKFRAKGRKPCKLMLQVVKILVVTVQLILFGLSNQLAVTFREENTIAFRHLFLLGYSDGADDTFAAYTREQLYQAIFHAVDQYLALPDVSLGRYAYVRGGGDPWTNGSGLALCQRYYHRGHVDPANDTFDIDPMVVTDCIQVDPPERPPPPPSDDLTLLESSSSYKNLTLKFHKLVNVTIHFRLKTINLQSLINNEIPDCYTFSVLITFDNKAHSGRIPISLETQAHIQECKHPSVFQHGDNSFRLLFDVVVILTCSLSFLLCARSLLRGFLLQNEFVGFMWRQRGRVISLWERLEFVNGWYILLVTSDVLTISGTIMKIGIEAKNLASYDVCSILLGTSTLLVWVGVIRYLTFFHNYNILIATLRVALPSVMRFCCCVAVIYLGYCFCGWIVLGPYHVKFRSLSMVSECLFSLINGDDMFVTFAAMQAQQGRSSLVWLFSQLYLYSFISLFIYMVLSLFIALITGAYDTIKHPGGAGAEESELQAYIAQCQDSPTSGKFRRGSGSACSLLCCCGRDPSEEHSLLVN
#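 Tet-induced TRPML1-DL cells loaded with Ca8 no-wash calcium dye were read kinetically on FDSS. Compound addition was followed by EC80 agonist 54-4 (4 uM final); inhibition was read over 110 s.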
# gsp antagonist – qHTS for Antagonists of gsp, the Etiologic Mutation Responsible for Fibrous Dysplasia/McCune-Albright Syndrome: qHTS; actives 0.4% (n = 340,000); AID 624288, 2012; gsp-mutant cells, cAMP HTRF, 30 min; control for the full effect not named in the record; Potency, µM (top dose mostly 76.9 µM), inactives show at the top dose activity change, negative = inhibition, actives largely listed as inhibitors; active = falling curve of any shape with a large fitted effect; inconclusive = falling curve, mostly with a smaller effect; inactive = flat or rising curve; cell line not stated here;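 note: intracellular cAMP measured with PDE inhibitor Ro 20-1724 present during compound exposure; potency is the fitted concentration of half-maximal effect; % is set by controls: 0 for no effect and ±100 for the full control effect; nearly all actives have a fitted effect of over 65% in size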
#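 Cells, 2000/well, grown 16–24 h in DMEM 10% FBS with 0.5 mg/ml G418, then compounds plus […] (300 uM addition stock), 30 min at 37C. cAMP read by HTRF (cAMP-d2 and anti-cAMP antibody-K in lysis buffer) after 30 min RT.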
# Sfp inh – qHTS Assay for Inhibitors of Bacillus subtilis Sfp phosphopantetheinyl transferase (PPTase). 4'-phosphopantetheinyl transferase ffp (Bacillus subtilis), Q9F4F7. Biochemical Sfp PPTase activity, qHTS. actives 3.5% (n = 310,000). Potency, µM, inactives show max response, negative = inhibition, hits mostly inhibitors. AID 1490, 2009; active = well fitted inhibition curve with a large enough effect; inconclusive = small, poorly fitted or top-dose-only effect, or another doubt; inactive = no such curve, though single readings can be large or run the other way;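 note: the enzyme is Sfp with the accession as filed and its product quenches rhodamine fluorescence; potency is the fitted concentration of half-maximal effect; 0% = enzyme reaction without inhibitor and -100% = no enzyme wells; top concentration of the series not given in the record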
#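 Fluorescence-quenching assay with 15 nM Sfp, 5 uM rhodamine-CoA and 12.5 uM BHQ-2-labelled ybbR peptide in pH 7.6 Hepes/MgCl2 buffer. Enzyme was pre-incubated with compound for 15 min at room temperature. Rate was taken from the 30-min fluorescence change (525/598 nm).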
# Menin MLL FP FL – qHTS Assay for Inhibitors Targeting the Menin-MLL Interaction in MLL Related Leukemias: Competition With Fluorescein Labeled MLL-derived Peptide; FP activity change, % at 61.4 µM; Fluorescence polarization, fluorescein-MLL peptide displacement from menin; 290,000 tested, under 10 active; AID 1766, 2009; inconclusive = falling polarisation curve, or a change in total fluorescence; inactive = total fluorescence flat and polarisation flat or rising; no compound was filed as active; the % refers to the polarisation; negative = inhibition;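 note: % of control where 0% means no effect; inhibitors lower the polarisation; unlabelled MLL peptide was the positive control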
# ClpP mod – qHTS Assay for Activators of ClpP; ATP-dependent Clp protease proteolytic subunit (Bacillus subtilis (strain 168)), P80244; purified B. subtilis ClpP, FRET peptide cleavage, 20 min; Potency, µM (doses to about 57.5 µM), without a hit: top-dose activity change, negative = active; actives 1.9% (n = 340,000); AID 651965, 2013; active = well fitted falling curve with a large enough effect; inconclusive = small, poorly fitted or top-dose-only effect; inactive = no such curve, though single readings can be large or run the other way; note: potency is the fitted concentration of half-maximal effect; the source files actives as falling curves though it sought activators and does not explain the sign; nearly all actives have a fitted effect of over 65% in size; many hits overshoot -100%
# Target sequence (P80244 whole entry, looked up): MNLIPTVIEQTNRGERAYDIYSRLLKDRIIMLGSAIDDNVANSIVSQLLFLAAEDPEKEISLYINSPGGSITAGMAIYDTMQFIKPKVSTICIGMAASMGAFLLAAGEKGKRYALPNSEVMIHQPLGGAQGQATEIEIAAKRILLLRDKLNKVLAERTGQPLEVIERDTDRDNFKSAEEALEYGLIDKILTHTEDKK
#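 Buffer: 100 mM Tris/HCl pH8, 100 mM KCl, 0.05% low protease BSA, 2.5% glycerol, 0.01% Tween-20. ClpP 10 microg/mL final; 20 min RT; delta FRET normalized to ADEP and DMSO controls.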
# TRPV1 potentiator – HTS Assay for Compounds that Act as Potentiators of the Vanilloid Receptor 1 | actives 0.02% (n = 320,000) | TRPV1-expressing cells, Fluo-8 calcium influx, capsaicin EC20 potentiation; host cell line not named in the record; control for the full effect not named in the record | potentiation, % at 8.33 µM; active means potentiation above 80%; inconclusive means 30% to 80%; inactive means below 30%; note: 0% is about no effect
#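 Fluo-8 calcium influx in TRPV1-expressing cells, kinetic read (ex 480/em 520 nm). Compound added and read 3 min for agonist activity, followed by capsaicin at EC20 final and 2 min further read for enhancement.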
# The depositor's hits bear a star; ? = inconclusive; / = no result given; & = joins results of further samples; [ ] = another dose, or the depositor's remark. Compounds were not picked by outcome (roughly 4.9% active in at least one column).
SMILES,gsp ag,TRPML1 inh,gsp antagonist,Sfp inh,Menin MLL FP FL,ClpP mod,TRPV1 potentiator
CCc1nc(N)c(C#N)c(-c2ccccc2OC)c1C,0%,10,-6%,-4%,3.7,28µM*,-6
CN(CC(=O)Nc1ccccc1Br)CC(=O)Nc1ccccc1C(F)(F)F,6%[15.4 µM],12,-3%,2%,9.2,/,-16
CNC1(C(N)=O)CCN(Cc2ccccc2)CC1,?,-12,8%,/,/,/,/
Cc1ccc(Cl)cc1N1CCN(S(=O)(=O)c2ccc3[nH]c(=O)c(=O)[nH]c3c2)CC1,15%[15.4 µM],-12,1%,-6%,-1.6,/,?
CC(C)C[C@H](CO)Nc1nc(N(C)c2cccc(Cl)c2)c2ncn(C(C)C)c2n1,10%,-14,10%,-9%,1.8,-15%,?
O=C(CCSCc1cccc(Cl)c1)NCCc1ccc(Cl)cc1,-22%,0&-1,-13%,-8%,4.9,-0.7%&-2.2%,-5
Cc1cccc(-c2n[nH]c([N+](=O)[O-])n2)c1,14%,10,?,7%,2.2,0.6%,-23
COc1ccccc1CCC(=O)N1CCC(n2nccc2NC(=O)C2CCOC2)CC1 (configuration not stated),-27%,5,3%,-5%,/,-2.0%,16
CC(=O)N(C(C)=O)N1C(=O)/C(=C/c2ccc(Cl)cc2)SC1=S,-15%[15.4 µM],8,-6%,-7%,3.5,/,7
CC1(NC(=O)NCCCCCCNC(=O)NC2(C)CCS(=O)(=O)C2)CCS(=O)(=O)C1 (configuration not stated),-3%[15.4 µM],2,2%,9%,/,/,2
Cc1ccc(N2CC(C(=O)Oc3cccc(N4C(=O)CCC4=O)c3)CC2=O)cc1 (configuration not stated),-29%,-18,-11%,22%,-0.5,-0.4%,5
CCOC(=O)c1ccccc1NC(=O)CSc1nnc(C)c(=O)[nH]1,-1%[15.4 µM],12,6%,13%,2.6,/,-3
COc1ccc(CCNC(=O)CN(c2cc(C)cc(C)c2)S(=O)(=O)c2c(C)noc2C)cc1OC,-30%[inhibitor],0,14%,10%,/,-0.5%,9
O=C(Nc1ccc(S(=O)(=O)Nc2ccc(Cl)cc2)cc1)C1CCCO1 (configuration not stated),?,-2,-1%,18%,-2.6,-0.1%,-21
Cc1ccc(N=c2oc3cc(O)ccc3cc2C(N)=O)cc1,-14%,8,-16%,-16%,?,25µM*,-12
CCOc1ncccc1C(=O)Nc1nc(SC)ns1,16%,-6,-4%,6%,0.8,-21%,1
CCOc1ccccc1NC(=O)Cc1coc2cc(C)ccc12,-16%,22,4%,-19%,2.3,1.0%,1
OC(CN1CCCCC1)c1ccc(Br)cc1 (configuration not stated),-5%,23,8%,/,/,/,/
COc1cc(C2NC(=S)NC(C)=C2C(=O)Nc2cc(C)cc(C)c2)ccc1O (configuration not stated),-36%,-14,0%,11%,-1.6,-1.8%,8
COc1ccc(-c2nc(S(=O)(=O)c3ccc(C)cc3)c(N3CCCC3)o2)cc1,-1%,9,5%,-20%,3.5,1.2%,?
CCn1c(SCC(=O)c2ccccc2)nnc1-c1cccs1,2%,-9,-23%,0%,1.2,-2.7%,1
Cn1c(SCc2ccccc2)nnc1-c1ccncc1,-76%[inhibitor],10,4%,8%,6.4,-3.2%,2
Cc1cccc(N2CCN(C(=O)CN3C(=O)NC(C)(C)C3=O)CC2)c1C,-5%,-2,8%,9%,4.3,-0.6%,/
CC(=O)Nc1sc(C)c(C)c1C(=O)OCC(=O)NCc1ccc(F)cc1,20%,25,9%,/,/,-3.5%,5
Nc1cc(=O)[nH]c(SCC(=O)c2ccc(O)cc2O)n1,29%,2,4%,6%,6.9,/,1
CCc1ccccc1NC(=O)N1CCC(NC(=O)C(Cc2ccccc2)NC(C)=O)CC1 (configuration not stated),20%,-8,-1%,1%,-2.3,-0.4%,7
CC1CCc2cc(F)cc3c(O)c(C(=O)NCc4ccco4)c(=O)n1c23 (configuration not stated),-3%[15.4 µM],-2,12%,-14%,1.5,0.3%,/
COc1ccc(C2(CNC(=O)c3cccc([N+](=O)[O-])c3)CCOCC2)cc1OC,22%[15.4 µM],8,6%,2%,-2.9,-1.5%,3
COc1ccccc1NC(=O)Nc1ccccc1C(=O)NCCCN1CCOCC1,17%[15.4 µM],-4,2%,11%,-4.9,2.8%,8
O=C(CNC(=O)c1ccccc1)OCC(=O)N1c2ccccc2Sc2ccccc21,-1%,-7,-11%,0%,11,1.5%,-12
CCCn1c(NC(=O)C2CCN(C(=O)c3ccccc3C)CC2)nc2ccccc21,0%,4,-10%,/,/,-3.4%,0
Cc1n[nH]c(C)c1CCCOc1ccccc1,-18%,29,-1%,3%,1.8,1.2%,-19
CSc1nc(C)cc(OCCNS(=O)(=O)c2cc(C)ccc2C)n1,-17%,-12,-12%,5%,0.9,0.6%,1
O=C(CCNS(=O)(=O)c1cccc2nsnc12)Nc1ccc2c(c1)OCCO2,-26%,-6,-16%,14%,2.7,-5.3%,8
Nc1nc(Nc2ccc(Cl)cc2)c(NC=O)c(=O)[nH]1,-3%,5,4%,/,/,-2.9%,/
Cn1c(=O)[nH]c(=O)c2c1nc(NCc1ccccc1)n2CC(O)c1ccccc1 (configuration not stated),10%,19,4%[15.4 µM],11%,0.3,0.6%,-3

# Record cards (already shown). Order of values: gsp ag | TRPML1 inh | gsp antagonist | Sfp inh | Menin MLL FP FL | ClpP mod | TRPV1 potentiator
# O=C(CCNS(=O)(=O)c1cccc2nsnc12)Nc1ccc2c(c1)OCCO2 is listed with -26% | -6 | -16% | 14% | 2.7 | -5.3% | 8
# Cc1ccc(Cl)cc1N1CCN(S(=O)(=O)c2ccc3[nH]c(=O)c(=O)[nH]c3c2)CC1 is listed with 15%[15.4 µM] | -12 | 1% | -6% | -1.6 | / | ?

# Remaining list, next part
SMILES,gsp ag,TRPML1 inh,gsp antagonist,Sfp inh,Menin MLL FP FL,ClpP mod,TRPV1 potentiator
C=C(C)C(=O)Nc1cccc(C2=NOC3(C2)C[C@H](C(N)=O)N(C(=O)CC)C3)c1 (some centres not stated),-13%,-1,9%,2%,3.6,1.1%,-13
Cc1c(Cl)c([N+](=O)[O-])nn1Cc1ccc(C(=O)N/N=C\c2cccc(Br)c2)o1,-1%,18,?,10%,0.2,-3.0%,-10
O=C(CCC1CCCN(C(=O)c2ccc3c(c2)OCCO3)C1)NCc1ccccc1F (configuration not stated),-1%,6,1%,6%,0.8,-0.3%,-3
COc1ccc(CCC(=O)Nc2nnc(C(C)(C)C)s2)cc1,?,39,6%,18%,0.5,-0.6%,24
Cc1cc(/C=C(/C#N)c2cccc(Cl)c2)c(C)n1C,-1%[15.4 µM],0,11%,-15%,5.3,?,-22
Cc1ccc(NC(=O)Cn2c(=O)c3cccn3c3ccccc32)c(Cl)c1,1%,-5,3%,-13%,12,-20%,6
O=C(NCC1CCCO1)c1cc([N+](=O)[O-])ccc1N1CCC(Cc2ccccc2)CC1 (configuration not stated),-44%[inhibitor],43,-28%,/,/,-1.9%,-1
CCc1ccc(OCC(=O)OCC(=O)c2ccc3c(c2)NC(=O)CO3)cc1,-11%,-11,1%,12%,-1.4,3.4%,-8
O=NC1=C(c2c(O)[nH]c3ccccc23)CCCC1,11%,12,4%,-10%,2.2,-1.7%,0
C[C@H]1CN([C@@H](C)CO)S(=O)(=O)c2ccc(Br)cc2O[C@@H]1CN(C)Cc1cccc(F)c1,-2%,0,/,/,/,1.0%,/
Cc1ccc(CN(C(=O)Cc2cccs2)C(C(=O)NC2CCCC2)c2ccncc2)cc1 (configuration not stated),-20%,-12,-9%,-2%,1.5,-0.7%,0
CC(NC(=O)COC(=O)COc1ccc(C(=O)c2ccccc2)cc1)c1ccccc1 (configuration not stated),-35%[inhibitor],-3,-8%,/,/,0.2%,-7

# Part of the list above in order of number of heavy atoms, highest first:
SMILES,gsp ag,TRPML1 inh,gsp antagonist,Sfp inh,Menin MLL FP FL,ClpP mod,TRPV1 potentiator
COc1ccccc1NC(=O)Nc1ccccc1C(=O)NCCCN1CCOCC1,17%[15.4 µM],-4,2%,11%,-4.9,2.8%,8
Cc1ccc(N2CC(C(=O)Oc3cccc(N4C(=O)CCC4=O)c3)CC2=O)cc1 (configuration not stated),-29%,-18,-11%,22%,-0.5,-0.4%,5
Cc1cccc(N2CCN(C(=O)CN3C(=O)NC(C)(C)C3=O)CC2)c1C,-5%,-2,8%,9%,4.3,-0.6%,/
CCOc1ncccc1C(=O)Nc1nc(SC)ns1,16%,-6,-4%,6%,0.8,-21%,1

# Next entries
SMILES,gsp ag,TRPML1 inh,gsp antagonist,Sfp inh,Menin MLL FP FL,ClpP mod,TRPV1 potentiator
O=C(c1ccccc1NS(=O)(=O)c1ccc(F)cc1)N1CCc2ccccc21,?,7,9%,2%,3.4,-1.7%,16
O=C(Nc1ccc(OC(F)F)cc1)c1ccccn1,24%[15.4 µM],12,-15%,-7%,-2.7,-12%,0
Cc1cc(C(=O)CN2C(=O)NC(CCS(C)(=O)=O)C2=O)c(C)n1C1CC1 (configuration not stated),-19%,-10,5%,/,/,2.1%,/
COc1ccc(C(=O)C2CCN(CC(=O)Nc3ccc(C)cc3)CC2)cc1,0%,7,-21%,14%,-1.5,/,-5
COc1cccc(C2CC(c3cccs3)=NN2C(=O)CSC2=NCCS2)c1OC (configuration not stated),-4%,-12,?,-16%,/,?,-8
CCOc1ccc(OCC)c(NC(=O)CSc2nnc(-c3cccnc3)o2)c1,8%,6,-4%,11%,0.8,-3.2%,2
Cc1cccc(NC(=O)c2sc(Cl)nc2-c2ccccc2)c1,20%,-1,-11%,-6%,1.8,-6.1%,7
